GLA inh pH 4.5 = qHTS Assay for Inhibitors of Human alpha-Galactosidase at pH 4.5; purified enzyme, 4-MU-alpha-Gal fluorescence, pH 4.5; activity change, negative = inhibition, % at 105 µM; 230,000 tested, under 10 active; AID 1467, 2008; inconclusive = small, poorly fitted or top-dose-only inhibition, or a rising curve; inactive = flat fitted curve, though single readings scatter; no compound was filed as active;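 further: 0% = full activity with enzyme and -100% = basal without enzyme; dose as in the result columns while the protocol names 77 µM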
Target sequence (P06280 whole entry, looked up): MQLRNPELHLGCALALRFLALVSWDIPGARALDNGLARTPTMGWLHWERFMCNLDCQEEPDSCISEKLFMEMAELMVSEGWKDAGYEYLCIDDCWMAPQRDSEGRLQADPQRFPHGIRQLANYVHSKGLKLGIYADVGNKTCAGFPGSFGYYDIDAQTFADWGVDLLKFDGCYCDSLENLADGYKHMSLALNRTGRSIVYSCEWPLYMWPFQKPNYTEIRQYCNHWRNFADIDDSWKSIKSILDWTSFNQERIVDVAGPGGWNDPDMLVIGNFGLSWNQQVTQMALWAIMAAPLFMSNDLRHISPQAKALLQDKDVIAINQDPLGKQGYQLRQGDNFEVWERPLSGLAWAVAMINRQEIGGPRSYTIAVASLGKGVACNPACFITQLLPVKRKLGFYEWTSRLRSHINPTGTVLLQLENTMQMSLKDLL
Rango-impB inh = qHTS Assay for Inhibitors of Rango (Ran-regulated importin-beta cargo) - Importin beta complex formation. 340,000 tested, 0.031% active. Rango CFP/YFP FRET sensor + importin beta, 45 min. Potency, µM (doses to about 92.2 µM), for the others: at the top dose inhibition of complex formation; active = rising FRET ratio curve, often small or poorly fitted; inconclusive = mostly compound fluorescence or quenching in the first reads; inactive = flat curves in all reads;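 further: potency means the concentration at half of the fitted maximal effect; 0% = DMSO wells and 100% = buffer wells lacking importin beta; nearly all actives have a fitted effect of over 15% in size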
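FRET biosensor (snurportin 1 IBB flanked by EYFP and cerulean), 50 nM, with compound 5 min, then 0.125 microM importin beta in PBS, 1 mM DTT, 0.02% Tween-20, 0.1% BSA. CFP/YFP ratio read after 45 min at room temperature; pre-read flags interference.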
Rango dissoc inh = qHTS Assay for Inhibitors of RanGTP induced Rango (Ran-regulated importin-beta cargo) - Importin beta complex dissociation; Snurportin-1 (Homo sapiens) + GTP-binding nuclear protein Ran (Homo sapiens) + Importin …; AID 540253, 2011; 340,000 tested, 0.071% active; Potency, µM (highest dose often 46.1 µM), for inactives: at the top dose activity change, negative = inhibition; Biochemical FRET Rango-importin beta, RanGTP-induced dissociation; active means falling FRET ratio curve, often poorly fitted, with flat reads before Ran was added; inconclusive means other falling curves, or compound fluorescence or quenching; inactive means flat or rising ratio curve;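 further: potency means the concentration at half of the fitted maximal effect; % of control where 0% means no effect; nearly all actives have a fitted effect of over 45% in size; -100% = wells without RanGTP and RCC1; the record marks most hits as doubtful in a second field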
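Two FRET readings bracket the reaction: one 5 min after compound meets Rango–importin beta, another 45 min after RanGTP-RCC1 (0.6 uM Ran, 0.2 uM RCC1, 2 mM GTP) is added. Only the second defines inhibition.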
miR-21 FLuc = qHTS Assay for Modulators of miRNAs and/orActivators of miR-21. HeLa miR-21 FLuc reporter, luciferase, 48 h. Potency, µM (top dose mostly 38.3 µM), for inactives: top-dose reporter change, positive = more light. 340,000 tested, under 10 active. AID 2288, 2010; active = well fitted rising curve with a large enough effect; inconclusive = small, poorly fitted or top-dose-only effect; inactive = no such curve, though single readings can be large or run the other way;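 further: % of control where 0% means no effect; miR-21 action dims this reporter so a rising signal means less miR-21 action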
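Compounds were titrated across several concentrations (up to approximately 40 uM) and incubated 48 hours with HeLa miR-21-FLuc reporter cells (miR-21 target sequence downstream of FLuc, endogenous miR-21). Readout was firefly luciferase luminescence after lytic detection reagent.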
* = called active by the depositor; ? = inconclusive; . = not tested or not shown. The list is partial, so the mix of outcomes need not match the whole.

SMILES | GLA inh pH 4.5 | Rango-impB inh | Rango dissoc inh | miR-21 FLuc
COc1cc(NC(=O)COC(=O)c2cc(S(=O)(=O)N3CCCCC3)ccc2Cl)c(C)cc1[N+](=O)[O-] | -4 | 1.2% | 32% | 1%
CC(=O)c1c(C)[nH]c(C(=O)NCc2ccccc2F)c1C | . | 1.1% | 24% | -7%
COc1ccc(CN2[C@@H](CC(C)=O)c3cc(C(F)(F)F)ccc3S2(=O)=O)cc1 | . | 0.9% | 16% | .
Cc1cc(C(=O)Cn2nnc3ccccc3c2=O)c(C)n1Cc1cccs1 | 3 | -2.1% | 0% | 11%
CN(C)c1ccc(NC(=O)c2ccc3c(c2)nnn3C)cc1 | 0 | -1.4% | -18% | -37%
CCN1CCN(C(C(=O)NC2CCCC2)c2cc3c(cc2[N+](=O)[O-])OCO3)CC1 (stereo not given) | 1 | 6.3% | 9% | -10%
O=C(CN(Cc1ccc(F)cc1)C(=O)CCC(=O)Nc1ccccn1)NCCc1ccccc1 | . | 1.9% | 5% | 2%
CSc1nc2ccc3nc(NC(=O)c4ccc(C)cc4)sc3c2s1 | -5 | ? | -9% | -6%
Cc1ccc2nc(C)cc(C(=O)OCC(=O)Nc3c(C)n(C)n(-c4ccccc4)c3=O)c2c1 | -6 | 3.6% | 8% | 2%
O=C(NCC1COc2ccccc2O1)c1ccccc1 (stereo not given) | -5 | 1.2% | -4% | -46%
O=C(NCc1ccc2c(c1)OCO2)c1ccc(COc2cc(Cl)ccc2Cl)o1 | 2 | -2.0% | -6% | -8%
Cc1ccc(NC(=O)CSCC(=O)Nc2ccccc2C(=O)NC2CC2)cc1 | . | -2.1% | 17% | .
COc1ccccc1C(CNC(=O)C1CCN(C(=O)Nc2ccccc2)CC1)N1CCCC1 (stereo not given) | . | 4.1% | 6% | .
COCCCNC(=S)Nc1ccc2nc(N3CCOCC3)cc(C)c2c1 | . | -0.1% | -11% | -11%
Cc1ccc(S(=O)(=O)N(C)C)cc1NC(=O)CN1C(=O)NC2(CCCCCC2)C1=O | . | -1.5% | -7% | -3%
CCc1cc(=O)oc2cc(OCC(=O)N3CCCc4ccccc43)ccc12 | -4 | -2.9% | 4% | -1%
CC(C)[C@H](NC(N)=O)C(=O)Nc1ccc(Oc2ccccc2)cc1 | 15 | 0.0% | 2% | -4%
O=S1(=O)CCOCCN1Cc1ccccc1 | . | 0.2% | 8% | 1%
CS(=O)(=O)c1sc(C#N)c2c1C(=O)CC(c1ccccc1)C2 (stereo not given) | -10 | 0.5% | -15% | ?
c1ccc(CCOn2ccnc2)cc1 | . | 1.0% | 4% | -4%
COc1cc(OC)cc(-c2nc3ccccc3c(=O)n2OC(=O)c2ccccc2C)c1 | -9 | -6.0% | -5% | 19%
Cc1cc(C)c2c(c1)OC(=O)CC2c1ccc2c(c1)OCO2 (stereo not given) | . | 3.8% | -5% | .
CCCCCC(=O)NC(CC(=O)OC)c1ccc2c(c1)OCO2 (stereo not given) | -24 | -0.1% | -9% | -2%
CC(=O)Oc1ccc2c(c1)Oc1cc(OC(C)=O)ccc1C21OC(=O)c2ccccc21 | -13 | ? | ? | -8%
Cc1ccc(C)c(OCC(=O)N(Cc2ccccc2)c2c(N)n(Cc3ccccc3)c(=O)[nH]c2=O)c1 | . | 0.8% | 4% | .
CCOC(=O)c1sc(NC(=O)c2cc3n(n2)C(C(F)(F)F)CC(c2ccccc2)N3)c(C(=O)OCC)c1C (stereo not given) | -9 | 2.5% | -7% | -4%
CCn1c(=O)n(CC)c2cc(N3CCCC3)c(NC(=O)c3ccccc3OC)cc21 | . | 2.8% | 2% | 8%
CN(C(=O)c1cccc(NC(=O)Cc2cccc(NC(=O)C3CCN(C(=O)c4ccccc4)CC3)c2)c1)C1CC1 | . | -0.2% | 19% | .
Cc1ccc(C)c(SCC(=O)OCC(=O)c2ccco2)c1 | -5 | -4.8% | -7% | -5%
O=C(NCCC1=CCCCC1)C(=O)NCC(c1ccco1)N1CCN(c2ccccc2)CC1 (stereo not given) | 3 | -0.9% | 2% | -2%
COc1cc2c(cc1O)C(Cc1ccc(O)cc1)[N+](C)([O-])CC2 (stereo not given) | -5 | -6.1% | -5% | -2%
CC(C)(C)NC(=O)NC(=O)COC(=O)c1cccc(F)c1 | -1 | -0.3% | 18% | -8%
O=C(CCCc1ccccc1)N1CCN(C2CCCCC2)CC1 | . | 3.0% | 2% | -58%
CC1CCCCN1S(=O)(=O)c1ccc(S(=O)(=O)N(Cc2ccccc2)Cc2ccco2)cc1 (stereo not given) | 0 | -0.2% | -9% | -4%
COc1cccc(CN(C)CC(=O)NCc2ccc(C)cc2)c1 | . | 1.3% | 12% | -10%
CC=CC1OCC(CC)C(CCC)O1 (stereo not given) | . | -2.2% | -2% | .
CC(=O)N(\C=C/C=C/C=C1\Sc2ccccc2C1=O)c1ccccc1 | -6 | ? | -18% | -4%
O=C(Nc1cccc(C(=O)O)c1)/C(=C/c1ccc([N+](=O)[O-])cc1)NC(=O)c1ccccc1 | 3 | 3.8% | 3% | 0%
CCn1c(SCC(=O)NCc2ccc3c(c2)OCO3)nnc1-c1c[nH]c2ccccc12 | 5 | -3.1% | 14% | 1%
O=C(CSc1nnc(-c2ccco2)n1-c1ccccc1)NCC1CCCO1 (stereo not given) | . | 1.0% | -9% | -4%
O=C(CSc1nnnn1C1CCCCC1)N1CCN(C(=O)c2ccco2)CC1 | -9 | 0.0% | 10% | 2%
CCCc1ccc(-c2ccc(/C=C/C(=O)O)cc2)nc1 | 4 | -0.2% | 17% | ?
CC(CC(=O)Nc1nc2ccccc2[nH]1)c1ccccc1 (stereo not given) | 1 | 0.0% | -11% | -20%
COc1ccc(CNc2oc(C)nc2C#N)cc1 | 2 | -3.6% | 7% | -10%
Cc1c(NS(=O)(=O)c2cc(C(=O)NCc3cccc(Cl)c3)ccc2Cl)c(=O)n(-c2ccccc2)n1C | . | -2.1% | -4% | .
CC(=O)N1CCN(c2ccccc2NC(=O)c2ccco2)CC1 | . | -3.4% | -1% | -3%
O=C1N[C@@H](Cc2ccccc2)COC(=O)[C@H](Cc2ccc(F)cc2)C/C=C\C[C@@H]1CC(=O)N(CCO)Cc1ccccc1 | . | -0.7% | 4% | .
O=C(NCc1ccc2c(c1)OCO2)c1c(-c2ccsc2)sc2ccccc12 | . | 5.2% | -5% | .
COc1ccc(Cl)cc1N=Cc1c(O)c2ccccc2oc1=O | . | 0.4% | -8% | -2%
O=C(Nc1ccccc1)c1cc2ccccc2s1 | . | -0.3% | 11% | .
CNC(=O)c1c(NC(=O)C2=COCCO2)sc2c1CCC(C)C2 (stereo not given) | . | -1.5% | 3% | -14%
Cc1cccc(NC(=O)c2nc[nH]c2C(=O)NCCCCNC(=O)c2[nH]cnc2C(=O)Nc2cccc(C)c2)c1 | . | 0.0% | 5% | .
Cn1c(=N)n(CC(O)c2ccco2)c2ccccc21 (stereo not given) | 0 | 3.6% | 10% | -4%
COc1cccc(NC(=O)Nc2ccc3c(c2)nnn3C)c1 | 3 | ? | ? | -47%
O=C(CNC(=S)N(CCCN1CCOCC1)Cc1cccs1)N1CCCCCC1 | -3 | 2.8% | -9% | 6%
COC(=O)Cn1c(=NC(=O)CSCC(=O)Nc2cc(C)on2)sc2ccccc21 | -1 | -0.4% | -5% | -5%
NC(=O)c1cc2ccccc2o/c1=N\NC(=O)c1ccccc1O | . | 1.5% | -10% | -4%
CCN(CC)S(=O)(=O)c1ccc(C)c(NC(=O)CSc2nc3ccc(C)cc3[nH]2)c1 | -19 | -0.2% | ? | -2%
O=C(COC(=O)c1cc(F)cc(F)c1)NCCCc1ccccc1 | . | 0.4% | 2% | 2%
CN(C)S(=O)(=O)c1cccc(NC(=O)c2ccc3nccnc3c2)c1 | -5 | -1.2% | -6% | 14%
The list goes on:
SMILES | GLA inh pH 4.5 | Rango-impB inh | Rango dissoc inh | miR-21 FLuc
Cc1ccc(/C=C/C(=O)OC(C)C(=O)NC2CCCCC2C)o1 (stereo not given) | . | 0.6% | -13% | .
N/C(=N\OC(=O)c1ccco1)c1ccccc1 | 0 | -2.8% | -3% | -62%
O=C(Nc1nnc(Cc2ccc(Cl)cc2)s1)C1CCCO1 (stereo not given) | 7 | -1.1% | 13% | -31%
CCCCNC(=O)CCC(=O)Nc1ccc2nc(N3CCN(C)CC3)cc(C)c2c1 | 23 | 0.1% | 3% | -18%
CC(=O)N1CCc2cc(S(=O)(=O)CCC(=O)N3CCc4ccccc4C3)ccc21 | -3 | 0.8% | -6% | -1%
COc1cc(O)c(C(CCN2CCCC2)c2ccc3c(c2)OCO3)c(OC)c1 (stereo not given) | 3 | -3.5% | 10% | 2%
c1ccc(CCSc2ncnc3nc[nH]c23)cc1 | -10 | ? | 14% | -30%
COCCCN1C(=O)C(O)=C(C(C)=O)C1c1ccccn1 (stereo not given) | 6 | 0.5% | -8% | 1%
O=C(Nc1ccon1)c1ccc(N2CCCCC2)c([N+](=O)[O-])c1 | 8 | -3.0% | 18% | -54%
N#Cc1ccc(OCc2nnc(SCC(=O)N3CCCc4ccccc43)n2-c2ccccc2)cc1 | 0 | 0.1% | 1% | 7%
CC(=O)c1c(C)n(C)c2ccc(OC(=O)c3ccc([N+](=O)[O-])cc3)cc12 | 2 | -0.6% | 2% | -3%
COc1ccc(C2(C(=O)Nc3cc(C)on3)CCOCC2)cc1 | 1 | 1.0% | 1% | -2%
CCOC(=O)c1cc2c(=O)n3ccccc3nc2n(CCOC)c1=NC(=O)c1ccncc1 | ? | ? | ? | -10%
Cn1c(=O)c2[nH]c(CCCc3nc4ccccc4[nH]3)nc2n(C)c1=O | . | 0.1% | 4% | .
COC(=O)c1cc(C(=O)OCC(=O)Nc2ccc(N3CCOCC3)cc2)cc([N+](=O)[O-])c1 | . | -0.3% | -14% | .
O=C(/C=C/c1cccc(F)c1)OCC(=O)N1CCCC1 | . | -2.0% | -7% | .
O=C(Nc1ccc(S(=O)(=O)NCc2ccco2)cc1)c1ccc2ccccc2n1 | -2 | -1.3% | -8% | -5%
O=C(O)CCC(=O)N1N=C(c2ccc(Br)cc2)CC1c1ccc(Br)cc1 (stereo not given) | . | -0.4% | -3% | -5%

12 compounds from above, ordered by SMILES length, lowest first.
SMILES | GLA inh pH 4.5 | Rango-impB inh | Rango dissoc inh | miR-21 FLuc
COc1ccc(CNc2oc(C)nc2C#N)cc1 | 2 | -3.6% | 7% | -10%
O=C(Nc1nnc(Cc2ccc(Cl)cc2)s1)C1CCCO1 (stereo not given) | 7 | -1.1% | 13% | -31%
COc1ccc(C2(C(=O)Nc3cc(C)on3)CCOCC2)cc1 | 1 | 1.0% | 1% | -2%
COCCCNC(=S)Nc1ccc2nc(N3CCOCC3)cc(C)c2c1 | . | -0.1% | -11% | -11%
CCc1cc(=O)oc2cc(OCC(=O)N3CCCc4ccccc43)ccc12 | -4 | -2.9% | 4% | -1%
O=C(NCc1ccc2c(c1)OCO2)c1c(-c2ccsc2)sc2ccccc12 | . | 5.2% | -5% | .
Cn1c(=O)c2[nH]c(CCCc3nc4ccccc4[nH]3)nc2n(C)c1=O | . | 0.1% | 4% | .
COc1cc(OC)cc(-c2nc3ccccc3c(=O)n2OC(=O)c2ccccc2C)c1 | -9 | -6.0% | -5% | 19%
CC(=O)N1CCc2cc(S(=O)(=O)CCC(=O)N3CCc4ccccc4C3)ccc21 | -3 | 0.8% | -6% | -1%
COc1ccc(CN2[C@@H](CC(C)=O)c3cc(C(F)(F)F)ccc3S2(=O)=O)cc1 | . | 0.9% | 16% | .
O=C(Nc1cccc(C(=O)O)c1)/C(=C/c1ccc([N+](=O)[O-])cc1)NC(=O)c1ccccc1 | 3 | 3.8% | 3% | 0%
O=C1N[C@@H](Cc2ccccc2)COC(=O)[C@H](Cc2ccc(F)cc2)C/C=C\C[C@@H]1CC(=O)N(CCO)Cc1ccccc1 | . | -0.7% | 4% | .

Source: PubChem (National Center for Advancing Translational Sciences (NCATS))
